Bioassay records as filed in PubChem.
Ecoli growth – inhibitors of Escherichia coli growth. OD600, 23 h; hits give low values. OD600 absorbance (concentration not given with the values). 330,000 compounds, 0.21% hits. AID 1053175;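 active means OD600 absorbance below the run mean of sample wells minus 3.6 SD, in any replicate, cut at about 0.56 in these data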;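 further: stock transfer was 300 nL into about 60 µL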
rRNA inh HTS – inhibits bacterial ribosomal RNA function over humanized ribosomes | E. coli WT GFP vs humanized-ribosome RFP mutants, fluorescence, 24 h; hits give low values; DMSO median 0, no signal -100 | GFP signal change (wild-type ribosome), % (concentration not given with the values) | 350,000 compounds, 1.6% hits | AID 720706;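 active means significant combined selectivity score with lowered wild-type GFP, culture density cut under 30%, mutant RFP and density less affected; inactive means any of these conditions unmet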; further: one replicate is shown; some compounds called inactive have numbers as strong as hits
ALR inh – inhibitors of human sulfhydryl oxidase ALR; P55789; 290,000 compounds, 3.8% hits; inhibition, % (no concentration beside the values); purified ALR, DTT oxidation, H2O2 HRP-luminol luminescence;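 active means mean and each replicate at 75% or more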;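 further: stock transfer was 7.5 nL into about 7.5 µL; 0% = neutral wells and 100% = wells with inactivated enzyme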
Target sequence (P55789 whole entry, looked up): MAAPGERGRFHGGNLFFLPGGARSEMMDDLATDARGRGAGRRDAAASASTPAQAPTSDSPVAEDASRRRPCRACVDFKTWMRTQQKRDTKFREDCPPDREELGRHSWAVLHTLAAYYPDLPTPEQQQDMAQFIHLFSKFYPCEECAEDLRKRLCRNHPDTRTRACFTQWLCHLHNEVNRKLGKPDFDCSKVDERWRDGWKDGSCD
HNF4A DNA FP – change in binding of human HNF4 alpha to DNA; AID 1224865; HNF4a-FITC DNA binding, fluorescence polarization, 1 h; activity change, % at 10 µM; P41235; 360,000 compounds, 0.3% hits; in the data active means activity change above about 30%, passing the limit was not always enough;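 further: controls were the assay level and a saturating level of protein; the project sought stronger binding though the title names inhibitors; some compounds called inactive have numbers as strong as hits; positive values seem to mean higher polarization but the record does not say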
Target sequence (P41235 whole entry, looked up): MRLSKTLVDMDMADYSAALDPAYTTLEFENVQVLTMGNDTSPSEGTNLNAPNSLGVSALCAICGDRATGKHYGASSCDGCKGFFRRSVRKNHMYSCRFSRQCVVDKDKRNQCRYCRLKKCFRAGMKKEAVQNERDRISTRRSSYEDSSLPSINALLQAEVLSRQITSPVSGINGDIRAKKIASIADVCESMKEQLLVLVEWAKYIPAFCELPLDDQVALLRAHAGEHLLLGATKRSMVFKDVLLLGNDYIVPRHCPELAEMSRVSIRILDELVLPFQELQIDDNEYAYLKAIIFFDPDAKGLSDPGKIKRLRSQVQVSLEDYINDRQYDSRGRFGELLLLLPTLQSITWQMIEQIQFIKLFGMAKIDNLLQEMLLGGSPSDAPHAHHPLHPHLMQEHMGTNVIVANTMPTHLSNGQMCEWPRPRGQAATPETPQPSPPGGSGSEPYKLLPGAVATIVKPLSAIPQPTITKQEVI
Vif TR-FRET – HIV-1 Vif–A3G interaction blockers – biochemical, TR-FRET, GST-Vif 1-94, biotin-A3G peptide, dose response retest, primary screen (AID 1117319); TR-FRET GST-Vif / biotin-A3G peptide binding; higher % means a stronger effect; test concentration not given here; strong numbers were not always called active; one-dose inhibition, %; IC50 in µM for titrated hits; 260,000 compounds, 0.57% hits;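 active means above the screen mean plus three standard deviations and confirmed in dose response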;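 further: Vif residues 1-94 fused to GST binding biotinylated APOBEC3G peptide 110-148; 0% = full assay without inhibitor and 100% = GST in place of GST-Vif; retest series ran down from 100 µM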
FGF22 binding – FGF22 (human) thermal shift binding. calls only at 9.99 µM. recombinant FGF22 thermal shift, SYPRO orange fluorescence; percent of sucrose octasulfate shift, DMSO zero. AID 651658. 340,000 compounds, 1.5% hits. Q9HCT0;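 active means melting point raised past a set limit in the mean and every replicate; three in four hits are not shown here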
Target sequence (Q9HCT0 whole entry, looked up): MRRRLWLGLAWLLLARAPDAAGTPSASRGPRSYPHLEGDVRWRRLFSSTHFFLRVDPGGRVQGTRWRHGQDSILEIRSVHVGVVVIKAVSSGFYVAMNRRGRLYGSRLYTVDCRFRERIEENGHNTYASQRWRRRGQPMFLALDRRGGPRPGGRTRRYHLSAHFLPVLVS
MLL AF4-AF9 inh – blocks AF4 peptide binding to human AF9 | P42568 | AlphaScreen, biotin-AF4 peptide binding to FLAG-AF9 | 350,000 compounds, 0.47% hits | inhibition, % at 10 µM;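 active means every replicate reaching a set inhibition limit, whatever the replicate mean, cut at about 25% in these data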;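 further: 0% = plate neutral control median and 100% = total signal loss; the record names both 10 and 1 µM as test concentration; the first replicate is given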
rRNA inh HTS OD600 – second read-out of rRNA inh HTS, no call of its own (marks repeat the call); OD600 change, %; measured here: OD600 growth;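 optical density of the mix in the first replicate; 0 = DMSO median and -100 = no signal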
rRNA inh HTS RFP – also measured in rRNA inh HTS; calls as there; RFP signal change, %; measured here: RFP humanized mutant strains;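 first replicate; 0 = DMSO median and -100 = no signal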
Active calls of the source: *; i = inactive; . = no result given; & = joins results of further samples.

SMILES	Ecoli growth	rRNA inh HTS	rRNA inh HTS OD600	rRNA inh HTS RFP	ALR inh	HNF4A DNA FP	Vif TR-FRET	FGF22 binding	MLL AF4-AF9 inh
COc1ccc(NC(=O)N(C)C[C@@H]2Oc3ccc(NC(=O)Nc4cccc5ccccc45)cc3CC(=O)N([C@H](C)CO)C[C@H]2C)cc1	.	-2.2	-3.3	-2.3	.	.	.	i	-6.2
CCc1n[nH]c(=S)n1/N=C/c1cc(Br)c(OC)cc1OC	.	.	.	.	-0.2	-0.5	-3.9%	.	.
CCN(CC)c1ccc(/C=N/NC(=O)c2cnccn2)c(O)c1	.	-16.2	-11.2	-2.7	-12.4	-4.1	6.2%	i	-1.4
CSCCC(C(=O)Nc1c(C)cccc1C)n1c(-c2cnc(C)cn2)nc2ccccc21 (stereo not drawn)	.	1.2	1.5	1.3	.	6.3	.	i	4.3
Cc1cc(NC(=O)C(C)SCC(=O)N(C)Cc2ccccc2F)no1 (stereo not drawn)	0.647	-2.2	-2.5	-2.9	1.2	0.0	-3.0%	i	2.0
Cc1cc(=O)[nH]c(SCc2nnc(-c3ccccc3)o2)n1	0.689	.	.	.	-3.8	-3.8	2.9%	.	.
COC(=O)[C@@]1(Cc2ccc(OC)cc2)[C@H]2c3cc(C(=O)N4CCCC4)n(Cc4cc(C)n(C)n4)c3C[C@H]2CN1C(=O)c1ccccc1	.	-3.7	2.5	-0.9	.	3.0	.	i	8.3
Cc1ccc2sc(NNC(=O)C3=COCCO3)nc2c1C	0.722	-3.5	-1.8	1.9	98.9*	2.0	25.6%	i	-6.0
Cc1ccccc1-c1ccc([C@@H]2[C@@H](CO)N3CCCCN(S(C)(=O)=O)C[C@H]23)cc1	.	-0.7	-7.1	-3.1	.	.	.	i	18.6
COc1ccc(-c2noc(CN(C(=O)c3cccs3)C(C)C)n2)cc1	0.746	.	.	.	6.7	4.2	5.0%	.	.
Cc1ccc(-c2cc(C(=O)N3CCC(C)CC3)c3ccccc3n2)cc1	0.651	-31.2	-33.5	1.7	-9.2	-1.2	.	i	-2.5
O=C(NC1CCCN(CCc2ccccc2)C1)c1c[nH]c2ccccc12 (stereo not drawn)	0.658	-3.5	4.6	-1.4	.	-0.6	.	i	-8.6
O=C(O)c1cncc(C#Cc2ccccc2)c1	0.659	-0.9	1.0	-1.2	-7.0	2.5	.	i	-5.4
CN(c1ccccc1)S(=O)(=O)c1ccc(Cl)c(C(=O)OCC(=O)NC2CCS(=O)(=O)C2)c1 (stereo not drawn)	0.654	-5.4	-9.6	-0.4	-18.8	-3.4	-3.8%	i	0.9
N#CSC(c1ccccc1)c1nc2ccccc2[nH]c1=O (stereo not drawn)	0.698	11.9	0.9	0.9	.	0.9	-0.4%	i	0.5
N/C(=N\S(=O)(=O)c1cc(C(F)(F)F)cc(C(F)(F)F)c1)c1ccc(Cl)cc1	0.594	3.4	1.0	0.1	-6.2	2.9	.	i	0.1
Cc1ccc(C)c2[nH]c(=O)c(CCNC(=O)c3ccc(S(=O)(=O)N4CCCC4)cc3)cc12	0.714	-9.3	-11.5	-1.0	.	2.7	-4.0%	i	-1.4
N#Cc1c(N)[nH]c(C(=O)c2ccccc2)c1-c1ccc(Cl)cc1	.	-44.1*	-22.6*	-3.5*	.	-1.7	.	i	-13.7
COC(=O)c1c(NC(=O)C(=O)N2CCOCC2)sc2c1CCCC2	0.681	0.0	-0.3	-0.3	-5.3	0.5	.	i	7.6
C[C@@H]1CN([C@@H](C)CO)C(=O)c2cccc(NS(C)(=O)=O)c2O[C@H]1CN(C)Cc1ccccc1	.	2.2	11.6	-0.3	.	.	.	i	-2.9
CCOC(=O)C1=NOC2(C1)C(=O)Nc1c(Cl)cccc12 (stereo not drawn)	.	8.3	19.6	-5.5	.	-0.6	.	i	-1.8
CN(C(=O)COC(=O)c1ccccc1C(=O)N(C)c1ccccc1)c1ccccc1	.	11.2	11.1	0.2	-1.5	-1.2	.	i	0.1
O=C(NCCSc1ccccc1)c1ccccc1	0.682	.	.	.	-10.9	0.4	-3.2%	.	.
COc1ccc(NC(=O)CN(C)C(=O)CCC(=O)c2ccc(C)cc2)cc1	0.68	1.1	0.1	4.4	-4.1	9.0	10.1%	i	-0.7
O=C(Nn1cnnc1)c1cc(Cl)ccc1Cl	0.675	8.6	5.4	-2.3	25.6	6.9	.	i	-3.2
COC(=O)COc1ccc2cccc(-n3cnnn3)c2c1	0.704	2.2	11.6	0.1	-38.5	4.8	.	i	-2.4
C[C@@H]1CN([C@H](C)CO)C(=O)Cc2cc(NC(=O)CCCCCC(=O)Nc3ccccc3N)ccc2O[C@H]1CN(C)S(C)(=O)=O	.	6.6	11.4	0.4	.	.	.	i	-0.1
Cc1ccc(-c2nnc(CCC(=O)N(C)Cc3nccs3)o2)s1	0.727	11.5	4.8	-0.3	3.7	1.4	.	i	-1.5
COC(=O)c1cc(NC(=O)c2cccnc2)ccc1N1CCOCC1	0.715	6.4	3.0	-4.9	-12.7	-0.1	-0.7%	i	-1.0
CN1c2ccc(-c3ccccc3)cc2[C@@H]2[C@@H](CCN2C(=O)NC2CCCC2)[C@H]1CO	.	-26.6	-47.4	16.9	.	.	.	i	1.4
COc1ccc(C(=O)NC2CCCc3ccccc32)cc1Br (stereo not drawn)	0.644	0.3	-24.1	-5.9	-15.3	-1.4	1.5%	i	-0.6
COc1ccc(CN2CCNC(=O)C2CC(=O)O)c(OC)c1 (stereo not drawn)	0.729	10.6	21.7	4.9	-9.9	-1.5	-0.1%	i	0.6
CCN(CC(=O)Nc1ccccc1C(F)(F)F)C(=O)CN1C(=O)NC(C)(c2ccccc2)C1=O (stereo not drawn)	0.668	1.3	7.7	-0.3	-5.2	-2.3	4.1%	i	10.6
COc1ccc(S(=O)(=O)N2CCCCN3[C@H](C2)[C@H](c2ccc(C#CC(C)C)cc2)[C@@H]3CO)cc1	.	2.1	15.6	2.7	.	.	.	i	0.7
COc1ccc(Cl)cc1C(=O)n1cnc2ccccc21	0.711	8.6	10.7	-1.5	-1.1	4.5	.	i	-1.6
C[C@@H]1CN([C@H](C)CO)C(=O)c2cc(NC(=O)CCCN(C)C)ccc2O[C@@H](C)CCCCO[C@@H]1CN(C)S(=O)(=O)c1cn(C)cn1	.	2.5	0.3	-2.0	.	.	.	i	-1.1
COc1ccc(C(NC(=O)c2ccc(-c3ccccc3)cc2)c2ccccc2)cc1 (stereo not drawn)	0.797	.	.	.	-5.1	0.6	0.8%	.	.
CCCNC(=O)N(C)C[C@@H]1Oc2ncc(C#Cc3ccncc3)cc2C(=O)N([C@@H](C)CO)C[C@@H]1C	.	7.8	10.1	3.7	.	.	.	i	-4.0
CC(=O)c1ccc(N2CCN(C(=O)C(=O)c3c(C)[nH]c4ccccc34)CC2)cc1	0.699	-9.7	-11.3	-0.3	-5.6	-0.2	-6.4%	i	1.5
CSc1c(CN2CCN(C)CC2)c2ccccc2n1C	0.623	5.1	3.4	4.3	-6.7	1.8	.	i	2.0
CC(C)c1nc(NCCO)c2nnn(Cc3ccccc3)c2n1	0.707	-2.2	-3.1	-1.4	.	-1.5	0.3%	i	-1.0
Cc1coc(NC(=O)CSc2nc(-c3ccc(Cl)cc3)cc(C(F)(F)F)c2C#N)n1	0.68	.	.	.	3.4	4.8	-31.8%	.	.
COCC(=O)Nc1cc(Cl)ccc1C	0.676	11.9	7.9	-1.0	-4.3	0.9	.	i	-0.8
COCCN(CCOC)c1nc(-c2ccc(Cl)cc2)nc2ccccc12	0.681	-9.3	-7.0	-1.4	-7.0	-0.2	-2.0%	i	-5.4
Cn1c(=O)oc2cc(S(=O)(=O)N3CCN(c4cccc(Cl)c4)CC3)ccc21	0.749	.	.	.	-3.5	16.4	-3.5%	.	.
C[C@H]1CN([C@@H](C)CO)S(=O)(=O)c2ccc(C3=CCCC3)cc2O[C@H]1CN(C)CC1CCOCC1	.	1.9	-3.8	1.3	.	.	.	i	2.0
CCc1nc2sc3c(=O)[nH]cnc3c2c2c1CSC(C)(C)C2	0.656	-11.3	-17.3	-5.0	4.0	-3.5	16.5%	i	-10.0
Cc1cc(=O)oc2cc(OC(=O)c3nn(C(C)C)c(=O)c4ccccc34)ccc12	0.695	.	.	.	6.9	-0.2	-9.9%	.	.
O=C(CCOc1ccccc1)Nc1ccc(S(=O)(=O)N2CCCC2)cc1	0.673	.	.	.	4.2	-2.1	1.6%	.	.
COc1ccc(-n2c(=O)/c(=C\c3cccs3)s/c2=C(/C#N)C(=O)N2CCN(C)CC2)cc1	.	13.2	-1.6	2.5	-4.6	4.1	10.9%	i	-4.4

Arranged by SMILES length (ascending): part of the list above.
SMILES	Ecoli growth	rRNA inh HTS	rRNA inh HTS OD600	rRNA inh HTS RFP	ALR inh	HNF4A DNA FP	Vif TR-FRET	FGF22 binding	MLL AF4-AF9 inh
O=C(Nn1cnnc1)c1cc(Cl)ccc1Cl	0.675	8.6	5.4	-2.3	25.6	6.9	.	i	-3.2
CCN(CC)c1ccc(/C=N/NC(=O)c2cnccn2)c(O)c1	.	-16.2	-11.2	-2.7	-12.4	-4.1	6.2%	i	-1.4
N/C(=N\S(=O)(=O)c1cc(C(F)(F)F)cc(C(F)(F)F)c1)c1ccc(Cl)cc1	0.594	3.4	1.0	0.1	-6.2	2.9	.	i	0.1

The list continues:
SMILES	Ecoli growth	rRNA inh HTS	rRNA inh HTS OD600	rRNA inh HTS RFP	ALR inh	HNF4A DNA FP	Vif TR-FRET	FGF22 binding	MLL AF4-AF9 inh
N#C[C@@H]1[C@H](c2ccc(C3=CCCCC3)cc2)[C@H](CO)N1C(=O)c1cccc(F)c1	.	-2.1	-38.4	11.1	.	.	.	i	0.6
CCc1nc2c(OCc3ccc(C(=O)OC)cc3)cccn2c1N(C)C(=O)c1ccc(C)cc1	.	-7.9	-28.4	4.9	.	3.2	.	i	2.8
N#C[C@H]1[C@@H](c2ccccc2C2=CCCC2)[C@H](CO)N1S(=O)(=O)c1ccccc1	.	-20.4	-44.9	20.0	.	.	.	i	-1.7
CCOc1ccc(C(O)(CCC(C)C)C(CN2CCOCC2)c2ccccc2)cc1 (stereo not drawn)	0.698	-22.7	-33.5	-0.9	-2.2	-0.9	0.6%	i	-2.4
COc1cc2c(cc1OC)C(c1ccccc1[N+](=O)[O-])N(C(C)=O)CC2 (stereo not drawn)	0.71	3.4	2.3	3.8	5.7	0.0	.	i	-0.4
CCN(C(=O)COC(=O)c1ccccc1NCCO)c1cccc2ccccc12	0.689	-23.8	-44.2	5.0	.	-0.1	1.0%	i	-3.2
O=C(Nc1cc(C(F)(F)F)cc(C(F)(F)F)c1)Nc1cnn(-c2ccc([N+](=O)[O-])cc2)c1C(F)(F)F	0.631	19.2	12.6	0.4	19.3	8.5	.	i	0.9
COc1ccc(NC(=O)N(C)C[C@@H]2OCc3cnnn3CCCC(=O)N([C@H](C)CO)C[C@H]2C)c(OC)c1	.	15.7&1.2	10.8&2.9	7.3&1.6	.	.	.	i	3.5&1.1
CO[C@@H](CN(C)Cc1cc(F)ccc1F)[C@@H](C)CN([C@H](C)CO)S(=O)(=O)c1ccc(Cl)cc1	.	-3.1	-41.5	28.1	.	.	.	i	1.9
COC(=O)Cn1cc(/C=C/c2cc[n+](C)cc2)c2ccccc21	.	53.4	-33.3	-0.9	-47.3	91.6	27.5%	i	-15.7
CC(=O)Nc1cccc(-c2nc3ccccc3[nH]2)c1	0.645	.	.	.	43.4	2.0	-7.1%	.	-2.2
CC1(c2cccc(Br)c2)NC(=O)N(CC(=O)Nc2ccc(F)cc2)C1=O (stereo not drawn)	0.673	-4.4	-23.6	1.0	.	2.6	.	i	3.8

Some of the compounds tested; the hit share may differ from the screen's.
